Compound activity deposited in PubChem BioAssay by National Center for Advancing Translational Sciences (NCATS).
Menin-MLL FL inh: inhibitors of human menin-MLL interaction, wild-type MLL peptide; FP activity change, % at 61.4 µM; Fluorescence polarization, fluorescein-MLL peptide displacement from menin; 290,000 tested, under 10 active; AID 1766; inconclusive = falling polarisation curve, or a change in total fluorescence; inactive = total fluorescence flat and polarisation flat or rising; no compound was filed as active; the % refers to the polarisation; negative = inhibition;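 further: % of control where 0% means no effect; inhibitors lower the polarisation; unlabelled MLL peptide was the positive control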
TRPV1 potentiator: human TRPV1 potentiation | Q8NER1 | TRPV1-expressing cells, Fluo-8 calcium influx, capsaicin EC20 potentiation; host cell line not named in the record; control for the full effect not named in the record | potentiation, % at 8.33 µM | hit rate 0.02% among 320,000; active means potentiation above 80%; inconclusive means 30% to 80%; inactive means below 30%; further: 0% is about no effect
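Cells expressing TRPV1 were dye-loaded with Fluo-8 and read kinetically: 10 s baseline, 3 min after compound (agonist portion), then 2 min after EC20 capsaicin (allosteric enhancer portion). Calcium-bound dye fluorescence at 480/520 nm.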
ClpP mod: qHTS Assay for Activators of ClpP | AID 651965, 2013 | ATP-dependent Clp protease proteolytic subunit (Bacillus subtilis (strain 168)), P80244 | purified B. subtilis ClpP, FRET peptide cleavage, 20 min | Potency, µM (series often up to 57.5 µM), for inactives: at the top dose activity change, negative = active | hit rate 1.9% among 340,000; active = well fitted falling curve with a large enough effect; inconclusive = small, poorly fitted or top-dose-only effect; inactive = no such curve, though single readings can be large or run the other way; further: potency means the concentration at half of the fitted maximal effect; the source files actives as falling curves though it sought activators and does not explain the sign; nearly all actives have a fitted effect of over 65% in size; many hits overshoot -100%
Target sequence (P80244 whole entry, looked up): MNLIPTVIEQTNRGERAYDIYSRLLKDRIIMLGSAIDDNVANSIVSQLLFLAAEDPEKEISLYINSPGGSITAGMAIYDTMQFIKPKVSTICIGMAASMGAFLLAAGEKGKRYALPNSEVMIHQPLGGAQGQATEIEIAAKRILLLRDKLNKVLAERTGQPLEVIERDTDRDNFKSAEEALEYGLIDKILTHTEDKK
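Buffer: 100 mM Tris/HCl pH8, 100 mM KCl, 0.05% low protease BSA, 2.5% glycerol, 0.01% Tween-20. ClpP 10 microg/mL final; 20 min RT; delta FRET normalized to ADEP and DMSO controls.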
Sfp inh: blocks B. subtilis Sfp PPTase activity; hit rate 3.5% among 310,000; Q9F4F7; AID 1490; Potency, µM, without a hit: max response, negative = inhibition, hits mostly inhibitors; Biochemical Sfp PPTase activity, qHTS; active means well fitted inhibition curve with a large enough effect; inconclusive means small, poorly fitted or top-dose-only effect, or another doubt; inactive means no such curve, though single readings can be large or run the other way;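 further: the enzyme is Sfp with the accession as filed and its product quenches rhodamine fluorescence; potency means the concentration at half of the fitted maximal effect; 0% = enzyme reaction without inhibitor and -100% = no enzyme wells; top concentration of the series not given in the record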
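Buffer: 50 mM Hepes-Na pH 7.6, 10 mM MgCl2, 0.01% Nonidet P-40, 0.01% BSA. Enzyme 15 nM, pre-exposed to compound 15 min; substrates then added and fluorescence change tracked over 30 min.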
gsp ag: gsp mutant agonism. gsp mutant cells, cAMP HTRF, 30 min; control for the full effect not named in the record. Potency, µM (doses to about 76.9 µM), for inactives: top-dose activation (cAMP increase), most hits filed as activators. hit rate 0.13% among 340,000. AID 624287; active = well fitted activation curve with a large enough effect; inconclusive = small, poorly fitted or top-dose-only effect, or another doubt; inactive = no such curve, though single readings can be large or run the other way; cell line not stated here;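 further: phosphodiesterase inhibitor Ro 20-1724 added with compounds to block cAMP breakdown; potency means the concentration at half of the fitted maximal effect; nearly all actives have a fitted effect of over 60% in size; about a fifth of the inactives were tested at one dose only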
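Cells stably selected in G418 were plated at 2000/well, grown 16-24 hr, then given compounds in DMSO with the PDE inhibitor […] (300 uM solution added) for 30 min at 37C; cAMP was read by HTRF.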
TRPML1 blocker: inhibitors of human TRPML1 channel; Q9GZU1; TRPML1-inducible cells, Ca2+ dye fluorescence, FDSS; active compounds read low; inhibition of EC80 agonist-evoked calcium signal; activity change, negative = inhibition, % (no concentration beside the values); hit rate 0.02% among 390,000; in the data active means activity change below about -50%; inconclusive means about -30% to -50%; inactive means above about -30%;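 further: stimulus is agonist 54-4 at its EC80 concentration; on the % scale 0 is the no-effect control and ±100 the full control effect; compound concentration not given in the record; the text of the record puts the active cut at -80%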
Target sequence (Q9GZU1 whole entry, looked up): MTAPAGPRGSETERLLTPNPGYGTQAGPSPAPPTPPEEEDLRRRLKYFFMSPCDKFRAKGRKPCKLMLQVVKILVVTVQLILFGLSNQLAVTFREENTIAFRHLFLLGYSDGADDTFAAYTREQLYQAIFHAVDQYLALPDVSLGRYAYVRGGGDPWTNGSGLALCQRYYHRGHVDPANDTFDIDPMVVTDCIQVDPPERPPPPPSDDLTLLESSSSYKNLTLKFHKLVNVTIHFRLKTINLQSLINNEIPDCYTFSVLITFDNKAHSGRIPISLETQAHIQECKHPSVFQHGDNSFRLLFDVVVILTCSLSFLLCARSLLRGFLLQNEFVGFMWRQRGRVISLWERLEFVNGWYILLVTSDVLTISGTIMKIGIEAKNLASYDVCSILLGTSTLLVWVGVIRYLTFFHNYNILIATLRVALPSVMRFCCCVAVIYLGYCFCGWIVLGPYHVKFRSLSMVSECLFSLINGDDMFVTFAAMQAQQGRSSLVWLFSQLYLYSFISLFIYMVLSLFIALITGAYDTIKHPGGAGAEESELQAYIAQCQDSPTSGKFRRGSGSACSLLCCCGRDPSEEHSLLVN
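Calcium fluorescence in TRPML1-DL cells induced overnight with Tet: a 110 s read after compound pin addition, then a 110 s antagonist read after challenge with 54-4 at 4 uM final (EC80).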
gsp antag: gsp mutant antagonism | Potency, µM (highest dose often 76.9 µM), for the others: at the top dose activity change, negative = inhibition, hits mostly inhibitors | gsp-mutant cells, cAMP HTRF, 30 min; control for the full effect not named in the record | hit rate 0.4% among 340,000; active = falling curve of any shape with a large fitted effect; inconclusive = falling curve, mostly with a smaller effect; inactive = flat or rising curve; cell line not stated here;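 further: intracellular cAMP measured with PDE inhibitor Ro 20-1724 present during compound exposure; potency means the concentration at half of the fitted maximal effect; on the % scale 0 is the no-effect control and ±100 the full control effect; nearly all actives have a fitted effect of over 65% in size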
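Cells, 2000/well, grown 16–24 h in DMEM 10% FBS with 0.5 mg/ml G418, then compounds plus […] (300 uM addition stock), 30 min at 37C. cAMP read by HTRF (cAMP-d2 and anti-cAMP antibody-K in lysis buffer) after 30 min RT.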
* hit, by the source's call; i = inactive; ? = inconclusive; / = no result given; & = joins results of further samples; ! = repeats disagree; [ ] = another dose, or the depositor's remark.

SMILES	Sfp inh	Menin-MLL FL inh	gsp antag	TRPV1 potentiator	gsp ag	ClpP mod	TRPML1 blocker
CC(C)[Si]1(C(C)C)OCC2OC(n3cnc4c(N)ncnc43)C(N)C2O[Si](C(C)C)(C(C)C)O1 (centres undefined)	/	/	-8.3%	/	-8.7%	-1.2%	-16.2
COCC(=O)N1CCC(Oc2ccc(C(=O)N(C)CCCC3CCCC3)cc2)CC1	10.6%	-0.6	-12.6%	-4.6	-8.9%	0.9%	31.2
Cc1ccccc1C(=O)Nc1ccnn1C1CCN(C(=O)c2ccoc2)CC1	14.3%	/	2.1%	4.5	18.0%	-0.6%	-17.3
COc1ccc(OC(=O)c2cnn(-c3ccccc3)c2C)cc1	-3.3%	-0.4	-21.4%	-12.1	9.2%	1.0%	44.5
COCC1CCCN(C(=O)c2ccc3oc(CCCc4ccccc4)nc3c2)C1 (centres undefined)	4.8%	/	9.1%	2.4	?	-1.2%	25.1
Cc1n[nH]c(=O)c2c(NC(=O)CSc3nc4ccccc4c(=O)n3CCCOC(C)C)oc(C)c12	9.0%	/	8.7%	1.0	-9.5%[15.4 µM]	0.1%	3.8
CCCCNC(=O)C1CCN(C(=O)C2CCN(S(=O)(=O)c3ccc(C)cc3)CC2)CC1	14.5%	/	4.7%	-0.2	?	-1.7%	-19.4
COc1ccc(CCNC(=O)c2ccccc2)cc1	12.9%	0.5	-9.8%	-34.2	10.3%[15.4 µM]	0.3%	-5.5
COCCCNc1nc2ccccc2nc1NS(=O)(=O)c1ccc(C)cc1	25.8%	2.8	-14.3%	8.9	26.0%	3.4%	16.4
CCc1ccc(C(=O)NNc2ccc(C)c(Cl)c2)cc1	-5.0%	-0.3	2.6%	-3.0	-2.8%[15.4 µM]	/	-8.6
CCc1cccc(NC(=S)N(CCCN2CCOCC2)C(C)c2cc3cccc(OC)c3o2)c1 (centres undefined)	11.3%	-8.2	-10.3%	6.6	?	/	12.0
Cc1ccc(NC(=O)c2cccc(S(=O)(=O)N3CCN(c4ccc(F)cc4)CC3)c2)nc1	1.5%	/	-1.8%	2.0	7.6%[15.4 µM]	-4.9%	-4.2
Fc1ccccc1-c1nc(N2CCCCC2)c2ccccc2n1	7.7%	2.5	-12.5%	2.7	-8.9%	-10.4%	-5.8
O=C(Nc1ccc2c(c1)OCCO2)C1CCN(c2ncccn2)CC1	16.1%	1.8	12.8%	6.4	7.2%[15.4 µM]	/	-4.0
O=C(c1ccc(C#CC2(O)CCCCC2)cc1)N1CCN(C(c2ccccc2)c2ccccc2)CC1	8.5%	0.1	-8.2%	3.5	-1.8%	-10.2%	5.0
COC(=O)C1=CN(Cc2cccs2)C=C(C(=O)OC)C1c1ccc(OC)cc1OC	-1.1%	0.6	8.3%	-12.6	-12.9%[15.4 µM]	/	3.4
Cc1cc(C)cc(C(=O)Nc2ccc(N3CCCC3)cc2)c1	50.1µM*	7.3	-15.1%	-4.0	6.5%[15.4 µM]	/	-3.8
Cc1ccc(NC(=S)NC(=O)c2ccc(F)cc2)cc1S(=O)(=O)Nc1cccc(Cl)c1	7.4%	-1.7	-8.9%	0.0	2.3%[15.4 µM]	-2.0%	20.8
COc1ccc(NC(=O)C2CCN(S(=O)(=O)c3cccc4nonc34)CC2)cc1	8.3%	7.7	-12.9%	1.1	-12.0%	/	-1.7
Nc1ccc(Br)c2cccnc12	-24.9%	0.5	-15.6%	-2.4	-12.0%[15.4 µM]	-0.6%	82.2
CCC(C)NC(=O)c1cc(-c2ccc3c(c2)OCO3)on1 (centres undefined)	4.3%	7.6	3.0%	7.1	24.5%	/	8.8
CCOC(=O)CCn1c2nc(C)cc(C)c2c(=O)n1-c1ccccc1	15.3%	1.3	7.5%	-6.3	-39.5%[inhibitor]	?	3.5
CCOc1ccc(C2C(C(=O)O)CCC(=O)N2C2CCCCC2)cc1 (centres undefined)	24.7%	-6.7	-6.1%	22.5	-6.9%[15.4 µM]	/	-5.1
COc1cc(C(=O)NCC(=O)N/N=C/c2ccc(-c3ccc([N+](=O)[O-])cc3)o2)cc(OC)c1OC	-10.6%	9.8	-14.4%	1.9	14.5%[15.4 µM]	/	-21.4
CCOC(=O)N1CCN(C(=O)CCn2nc(-c3ccccc3)ccc2=O)CC1	-5.0%	4.5	0.6%	-19.8	?	-9.5%	-0.2
C=CCn1cc(CN2CCC(C(=O)Nc3cccc(-c4cccc(Cl)c4)c3)CC2)c(C)n1	?	-3.6	-1.9%	-0.6	26.3%	-3.4%	0.1
Cc1nc(N2C(=O)C(=O)/C(=C(/O)c3ccccc3)C2c2ccco2)sc1C (centres undefined)	14.1%	-0.1	-4.4%	6.3	-20.3%	0.7%	-10.1
CCCc1nnc(-c2ccc(OC)cc2)o1	-9.1%	7.4	12.9%	-19.7	-15.5%	-1.2%	1.1
COC(=O)c1cnc(SCc2ccc([N+](=O)[O-])cc2)n1C	20.0%	3.2	1.2%	-6.7	8.1%	-1.9%	-14.6
CCOC(=O)C(C)Oc1ccc(C2NC(=O)NC(C)=C2C(C)=O)cc1Br (centres undefined)	12.1%	1.8	-10.8%	4.2	-41.2%[inhibitor]	0.9%	3.0
C=C1CC2C(=O)N(Cc3ccccc3)C(C(=O)OCC)(C(=O)OCC)C1N2C(=O)OC(C)(C)C (centres undefined)	5.5%	0.9	0.6%	/	-13.0%	-1.1%	20.7&-19.9
O=C(Cc1cccs1)NC(Cc1c[nH]c2ccccc12)C(=O)O (centres undefined)	5.7%	-1.7	0.9%	10.9	-0.5%[15.4 µM]	/	-12.5

2 entries drawn at random from those above:
SMILES	Sfp inh	Menin-MLL FL inh	gsp antag	TRPV1 potentiator	gsp ag	ClpP mod	TRPML1 blocker
CCOC(=O)C(C)Oc1ccc(C2NC(=O)NC(C)=C2C(C)=O)cc1Br (centres undefined)	12.1%	1.8	-10.8%	4.2	-41.2%[inhibitor]	0.9%	3.0
CCOC(=O)N1CCN(C(=O)CCn2nc(-c3ccccc3)ccc2=O)CC1	-5.0%	4.5	0.6%	-19.8	?	-9.5%	-0.2

Further structures
SMILES	Sfp inh	Menin-MLL FL inh	gsp antag	TRPV1 potentiator	gsp ag	ClpP mod	TRPML1 blocker
CN1CCc2c(n(CC(O)CN3CCN(CCO)CC3)c3ccccc23)C1=O (centres undefined)	9.1%	-16.8	12.4%	3.7	-41.4%[inhibitor]	4.3%	-28.5
NC(=O)c1ccsc1NC(=O)C1CC1	-0.4%	3.5	2.4%	0.7	0.3%	1.5%	14.4
CC(=O)N1[C@H](Cc2ccccc2)C=C[C@]1(C)C(=O)NCc1ccc(C)o1	44.7µM*!	1.6&0.1	9.8%	-27.5	/	0.2%	-0.4
O=C1CC(N2CCCc3ccccc32)C(=O)N1c1ccccc1 (centres undefined)	9.3%	-0.2	6.2%	-9.2	29.2%	0.2%	-2.9
CCCN(CCC)CCCNC(=O)c1cc2c(-c3ccc(Cl)cc3)nn(C)c2s1	/	/	/	5.6	/	?	13.5
O=C1OC2(CCCCC2)CC2=C1C1O[C@](c3ccsc3)(Cc3ccccc31)O2	-2.9%	6.2[11.7 µM]	/	i	/	/	/
Cc1ccc(-c2cccc([C@H]3[C@@H]4C=CC[C@@H](C)[C@@H]4C(=O)N3Cc3ccccc3)c2)cc1	6.4%	-2.3	-8.0%	/	/	-0.9%	50.5
O=C(c1cnccn1)N1CCN(C/C=C/c2ccccc2)CC1	15.5%	0.1	5.0%	2.2	1.4%	-0.3%	-3.8
CC(=O)c1coc2ccc(OCC(=O)O)cc12	1.6%	-1.7	5.8%	2.8	19.1%	1.0%	-2.1
Cc1c(NC(=O)c2cc(-c3ccc(Cl)s3)nc3ccccc23)c(=O)n(-c2ccccc2)n1C	0.1%	5.4	-2.4%	16.4	-5.7%	-5.3%	-2.7
O=C(c1ccc(S(=O)(=O)N2CCOCC2)cc1)N(c1ccc(F)cc1)C1C=CS(=O)(=O)C1 (centres undefined)	20.3%	-0.2	-6.8%	-0.1	-25.9%	0.3%	-1.7
CCC1(C)Cc2ccccc2-c2[nH][nH]c(=O)c21 (centres undefined)	6.9%	-5.9	13.8%	11.0	-14.7%[15.4 µM]	/	29.8
COc1cc2c(cc1NC(=O)c1cccc(S(=O)(=O)N(C)C)c1)oc1ccccc12	-10.0%	9.9	-10.6%	17.9	-34.0%[inhibitor]	?	-4.2
CC(=O)c1ccc(NS(=O)(=O)c2cccc(C(=O)Nc3ccccc3C(=O)O)c2)cc1	14.2%	0.3	?	12.7	-19.7%	-9.2%	/
CS(=O)(=O)N1CCN(c2cnn(-c3ccccc3)c(=O)c2Cl)CC1	12.8%	0.4	8.7%	-11.9	-11.0%[15.4 µM]	0.7%	10.8
O=C1C2C3C=CC(C3)C2C(=O)N1c1ccc(S(=O)(=O)Nc2nccs2)cc1 (centres undefined)	7.5%	-0.8	-0.4%	0.8	-18.7%[15.4 µM]	/	9.3
O=C(O)CCCn1nc(C(F)(F)F)c2c1CCCCC2	-7.6%	0.9	10.7%	29.0	5.7%	-0.2%	1.5
COc1ccc(OCC(=O)NCC(c2cccs2)N2CCOCC2)cc1 (centres undefined)	/	/	-9.2%	-5.0	-31.5%[inhibitor]	?	40.0
O=C(Cc1ccccc1)NCC(=O)Nc1cccc(Cl)c1	8.7%	-8.8	-5.8%	-5.0	-2.7%[15.4 µM]	/	12.8
